From PubChem
EPAC1 agonist: human EPAC1 agonism, validation; AID 1645883; O95398; hit rate 1% among 16,000; Potency, µM, without a hit: max response, positive = active, most hits filed as activators; EPAC1 Rap1b BODIPY-GDP exchange, fluorescence; active means well fitted activation curve with a large enough effect; inconclusive means small, poorly fitted or top-dose-only effect; inactive means no such curve, though single readings can be large or run the other way;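 further: nearly all actives have a fitted effect of over 70% in size; series mostly up to about 76 or 150 µM; scaled to a cAMP control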
Target sequence (O95398 whole entry, looked up): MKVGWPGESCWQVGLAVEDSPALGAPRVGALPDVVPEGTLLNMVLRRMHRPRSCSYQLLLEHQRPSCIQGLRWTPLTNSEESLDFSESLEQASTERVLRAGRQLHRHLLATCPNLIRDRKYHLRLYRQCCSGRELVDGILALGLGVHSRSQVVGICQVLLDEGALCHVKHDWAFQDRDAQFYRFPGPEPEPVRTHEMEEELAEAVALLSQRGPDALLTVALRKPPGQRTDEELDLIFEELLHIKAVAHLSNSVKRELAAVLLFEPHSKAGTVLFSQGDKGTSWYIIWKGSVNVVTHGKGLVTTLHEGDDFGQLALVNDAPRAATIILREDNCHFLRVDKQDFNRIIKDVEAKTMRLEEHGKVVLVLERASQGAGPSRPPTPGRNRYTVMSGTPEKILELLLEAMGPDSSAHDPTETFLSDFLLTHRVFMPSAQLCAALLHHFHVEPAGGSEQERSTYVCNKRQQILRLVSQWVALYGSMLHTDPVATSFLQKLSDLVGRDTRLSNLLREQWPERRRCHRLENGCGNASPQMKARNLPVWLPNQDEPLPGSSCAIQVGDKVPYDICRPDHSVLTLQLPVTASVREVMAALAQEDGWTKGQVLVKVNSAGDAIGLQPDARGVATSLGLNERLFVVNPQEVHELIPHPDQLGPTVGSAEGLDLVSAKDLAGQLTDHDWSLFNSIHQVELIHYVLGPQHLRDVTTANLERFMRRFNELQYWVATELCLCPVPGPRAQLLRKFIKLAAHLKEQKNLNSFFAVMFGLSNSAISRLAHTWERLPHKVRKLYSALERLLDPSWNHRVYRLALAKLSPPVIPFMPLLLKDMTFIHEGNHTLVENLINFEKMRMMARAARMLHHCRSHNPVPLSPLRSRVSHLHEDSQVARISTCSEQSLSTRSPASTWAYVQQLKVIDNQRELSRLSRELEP
Numbers without * were called inactive; ? = inconclusive; & = joins results of further samples; [ ] = dose if it differs, or a comment. On the % scale 0 is the no-effect control and ±100 the full control effect; potency means the concentration at half of the fitted maximal effect. A portion of the library (hit frequency here may not be typical).

EPAC1 agonist	SMILES
0.1%&-14.2%&8.1%&-29.8%	CCOC(=O)C1=C(C)NC(C)=C(C(=O)OC)C1c1cccc([N+](=O)[O-])c1 (stereo unspecified)
2.1%	CCOC(=O)C1CCCCN1C(=O)c1ccc(-n2cc(NC(=O)c3cccnc3)cn2)cc1 (stereo unspecified)
-21.7%	O=c1c(-c2cccs2)nc2cnc(Oc3ccccc3)nc2n1C1CC1
4.6%&-2.9%	CS(=O)c1ccc(-c2nc(-c3ccc(F)cc3)c(-c3ccncc3)[nH]2)cc1 (stereo unspecified)
?	c1ccc(CNc2nc(-c3ccoc3)nc3ccccc23)cc1
22.1%	CS(=O)(=O)CCCCN=C=S
-8.4%	CC1O[C@@H](O[C@H]2C(Oc3cc(O)c4c(c3)OC(c3ccc(O)cc3)CC4=O)OC(CO)C(O)C2O)C(O)C(O)C1O (stereo partly specified)
-1.6%	NC1=NCCCC1
-16.9%	CCC1C(=O)NCCN1Cc1ccc2c(c1)CN(Cc1cccn1-c1ccc(Cl)cn1)CCO2 (stereo unspecified)
25.1%	COCC(=O)N1CCC[C@@]2(CCN(C(=O)Nc3cccc(F)c3)C2)C1
-35.6%[inhibitor]	NC(CS)C(=O)O (stereo unspecified)
-1.2%	C=CC(=O)c1ccc(CCCCCC)cc1
3.3%	CCCCCC[C@@H](CCC)C(=O)O
0.4%	O=c1ccc2c(OCCCCc3ccccc3)c3ccoc3cc2o1
-70.8%[inhibitor]	COc1ccc(NC(=O)N2CC[C@@]3(CCCNC3)C2)cc1
15.0%	COCCNc1ncnc2ccc(-c3cccc(OC)c3)cc12
8.9%	O=C(O)[C@H]1C(=CCO)O[C@H]2CC(=O)N12
2.5%	Cc1ccc(C)c(CN2C[C@H](Sc3nc4ccccc4[nH]3)C[C@H]2C(=O)N2CCCN(C)CC2)c1
15.8%	COc1ccccc1CN1CCCC2(CCN(C(=O)c3cccn3C)CC2)C1
-4.3%	CN1N=C(C(=O)N2CCOc3ccc(CN4CCCC(C(=O)c5cccnc5)C4)cc3C2)CCC1=O (stereo unspecified)
-12.6%	COC(=O)CC1C(C)(C)C2(O)OC34CC2C(=O)[C@@]1(C)C3CC[C@]1(C)C4=CC(=O)OC1c1ccoc1 (stereo partly specified)
?	COc1cccc(Cn2c(=O)c(-c3ccccc3)nc3cncnc32)c1
9.0%	Cc1ccc(CN2C[C@H](Sc3ccccn3)C[C@H]2C(=O)Nc2ccc3sc(C)nc3c2)s1
10.7%	O=C(Oc1ccccc1)N1CCC2(CCCN(c3ncccn3)C2)CC1
-10.2%	O=C(NCCO[N+](=O)[O-])c1cccnc1
12.1%	CC1(C)S[C@@H]2C(C(=O)O)NC(=O)N2C1C(=O)O (stereo partly specified)
5.0%	COCc1c(C(=O)NCC2CCCN(C)C2)cnn1-c1ncc2c(n1)-c1ccccc1CCC2 (stereo unspecified)
-8.1%	COc1ccc2[nH]c(C(=O)c3ccccc3)cc2c1
-8.5%&0.7%&10.5%	Nc1nc2c(ncn2COCCO)c(=O)[nH]1
4.7%	Cc1cc(C(=O)NCC2CCC3(CCN(Cc4ccc(-c5ccccc5)cc4)CC3)O2)n(C)n1 (stereo unspecified)
-2.4%	COc1cc2c(cc1OC)C1Cc3ccc(OC)c(OC)c3CN1CC2 (stereo unspecified)
-39.6%[inhibitor]	COc1cc(C=O)cc(OC)c1[N+](=O)[O-]
-17.7%	O=C1CC2(CCCC2)CC(=O)N1CCNCC1COc2ccccc2O1 (stereo unspecified)
1.9%	CN[C@H](CC(C)C)C(=O)N[C@H]1C(=O)N[C@@H](CC(N)=O)C(=O)N[C@@H]2C(=O)N[C@H]3C(=O)N[C@H](C(=O)N[C@H](C(=O)O)c4cc(O)cc(O)c4-c4cc3ccc4O)[C@H](O)c3ccc(c(Cl)c3)Oc3cc2cc(c3O[C@@H]2O[C@H](CO)[C@@H](O)[C@H](O)[C@@H]2O[C@H]2C[C@](C)(N)[C@H](O)[C@H](C)O2)Oc2ccc(cc2Cl)[C@H]1O
19.8%	O=C(COc1ccc(Cl)cc1)N1CCN(Cc2ccc3c(c2)OCO3)CC1
20.5%	COc1ccc(NC(=O)N2CC3(CCN(C(C)=O)CC3)C2)cc1
-13.9%&12.4%	CC1=CC(=O)CC(C)(C)C1(O)/C=C/C(C)=C\C(=O)O (stereo unspecified)
-3.3%	CCc1ccc(/C=C2/SC(=S)NC2=O)cc1
-78.4%[inhibitor]	COc1ccc(NC(=O)N2CC[C@@]3(CCCN(S(C)(=O)=O)C3)C2)cc1
-16.3%	C[C@@](N)(C(=O)O)c1ccc(P(=O)(O)O)cc1
-12.5%&-15.2%	COc1cc(OC)c(C(=O)CCCCN2CCC3(CC2)NC(=O)NC3=O)cc1NS(=O)(=O)c1ccc(C(F)(F)F)cc1
5.2%	C[C@H]1CN(Cc2ccccc2)C(=O)[C@@H]1CC(=O)NCc1ccccc1
?	COc1ccc2[nH]cc(CCNc3ncnc4ccc(-c5ccoc5)cc34)c2c1
-16.3%	COc1cccc(OC)c1OCCNC[C@@H]1COc2ccccc2O1
0.7%	Cc1ncc2c(c1CNC(=O)c1cncs1)CCN(C(=O)c1csc(-c3cccs3)n1)C2
6.0%	COc1cc(-c2noc(C)c2C(=O)NCCO)cc(OC)c1OC
-2.2%	CCOC(=O)C1CCCCN1C(=O)c1cnn(-c2nccc(-c3cc(C)sc3C)n2)c1C1CC1 (stereo unspecified)
-16.5%	COCCCCCCCCCCCC(=O)O
?	COc1ccc2c(c1)OCc1c-2oc2cc(OC)ccc12
-45.2%[inhibitor]	CC(C)c1nc(N(C)S(C)(=O)=O)nc(-c2ccc(F)cc2)c1/C=C/C(O)CC(O)CC(=O)O (stereo unspecified)
8.7%	Cc1ccc2c(c1)CN(CCNC(=O)c1ccc3nc(C)[nH]c3c1)CC(C)O2 (stereo unspecified)
-27.3%	CC(C)C(C)/C=C/C(C)C1CCC2C3=CC=C4CC(O)CCC4(C)C3CCC21C (stereo unspecified)
-1.8%	COc1ccc(N2C(=O)[C@@H]3C[C@H]2CN3Cc2ccc3nccnc3c2)cc1Cl
7.9%	C#Cc1cccc(Nc2ncnc3cc(OCCOC)c(OCCOC)cc23)c1
-6.0%	COc1ccc(OC)c(C(=O)N2CCc3c(cnc(C)c3CNS(=O)(=O)N(C)C)C2)c1
-10.7%	COc1cc(=O)n2c(c1C(=O)NC(C)c1ccco1)CCN(C(=O)c1cccc(C)c1)CC2 (stereo unspecified)
-2.0%	CO[C@H]1[C@H](NC(=O)C(C)C)c2ccccc2C12CCN(Cc1cnc(N(C)C)s1)CC2
-16.3%	Cc1cc(C)c(NC(=O)C[C@H](CC(=O)O)c2cccc3ccccc23)c(C(=O)N2CCC3(CCCC3)CC2)c1
17.0%	CN(Cc1ccco1)c1cc(-c2ccccc2C(F)(F)F)ncn1
-2.7%	Cc1csc(CN(C)C(=O)c2sc3ncnc(NCC4CCCO4)c3c2C)n1 (stereo unspecified)

Remaining list, next part:
EPAC1 agonist	SMILES
-31.1%[inhibitor]	CC(=O)NCCNc1ccnc(-c2ccccc2C(F)(F)F)n1
4.2%	CN1CCc2cc(NC(=O)Nc3cccnc3)ccc21
-15.0%	O=C(Nc1ccccc1)N1CC2(CCN(C(=O)c3ccco3)CC2)C1
2.4%	COCCn1c(=O)c(-c2ccc(Cl)cc2)nc2cncnc21
21.6%	Cc1onc(-c2ccccc2)c1-c1ccc(S(N)(=O)=O)cc1
-5.5%	C[C@@H]1CCC2C(C)(C)C3CC21CC[C@@]3(C)O (stereo partly specified)
3.9%	COc1cccc(Cn2c(=O)c(-c3cccc(C#N)c3)nc3cnc(Nc4ccccc4)nc32)c1
-27.1%	CCNc1ncc2nc(C)c(=O)n(CCc3ccccc3)c2n1
-18.1%	C[C@]12CCC(=O)C=C1CCC1C3CC[C@](O)(C(=O)CO)[C@@]3(C)CC3OC312 (stereo partly specified)
-10.5%	CC(C)CN1CCC(=O)N(CCC#N)CC1
-4.0%	C=CC[N+]1([C@H]2C[C@H]3[C@@H]4CC[C@H]5C[C@H](O)[C@@H](N6CCOCC6)C[C@]5(C)[C@H]4CC[C@]3(C)[C@H]2OC(C)=O)CCCC1
-1.1%	COCC(=O)Nc1cc(C(=O)N2CC3CCCC2C3)c2c(c1)nc(-c1ccncc1)n2C (stereo unspecified)
-0.3%	Cc1nc2ccc(C(=O)N3CCOc4ccc(CN5CCOCC5)cc4C3)cc2nc1C
-6.7%	C[C@@]12CCC[C@H]1C1CC[C@H]3C[C@H](O)CC[C@]3(C)C1CC2 (stereo partly specified)
-73.5%[inhibitor]	CC(C)CN1CC[C@@]2(CCCN(C(=O)c3cc(C(F)(F)F)cc(C(F)(F)F)c3)C2)C1
-30.0%&-3.0%	COc1ccc(CCN2CCC(Nc3nc4ccccc4n3Cc3ccc(F)cc3)CC2)cc1
-26.1%	COCCNc1ncncc1-c1c(C)noc1C
-61.4%[inhibitor]	FC(F)(F)c1ccccc1-c1nc(N2CCOCC2)c2ccccc2n1
-54.1%[inhibitor]	N#CCCn1c(=O)cnc2cnc(Nc3ccccc3)nc21
-10.5%	CC1(C)O[C@@H]2C[C@H]3[C@@H]4CCC5=CC(=O)C=C[C@]5(C)[C@H]4[C@@H](O)C[C@]3(C)[C@]2(C(=O)CO)O1
112µM*	COc1cccc(Cn2c(=O)c(CCc3ccccc3)nc3cnc(N4CCN(C)CC4)nc32)c1
-2.3%	CC[C@H]1OC(=O)[C@H](C)[C@@H](O[C@H]2C[C@@](C)(OC)[C@@H](O)[C@H](C)O2)[C@H](C)[C@@H](O[C@@H]2O[C@H](C)C[C@H](N(C)C)[C@H]2O)[C@](C)(O)C[C@@H](C)CN(C)[C@H](C)[C@@H](O)[C@]1(C)O
9.9%	C=CC[n+]1cccc2cccc(O)c21
10.6%	CC(C)C[C@H](NC(=O)CNC(=O)[C@H](Cc1ccc(O)cc1)NC(=O)[C@H](CO)NC(=O)[C@H](Cc1c[nH]c2ccccc12)NC(=O)[C@H](Cc1cnc[nH]1)NC(=O)[C@@H]1CCC(=O)N1)C(=O)N[C@@H](CCCN=C(N)N)C(=O)N1CCC[C@H]1C(=O)NCC(N)=O (stereo in doubt)
11.4%	O=c1c(-c2ccc(F)cc2)nc2cnc(Oc3ccccc3)nc2n1Cc1cccs1
12.0%	CN(C)c1ccc(-c2nc(N(C)C)c3ccccc3n2)cc1
2.8%&-5.2%&-1.6%	O=C(O)C1CCCN(CCC=C(c2ccccc2)c2ccccc2)C1 (stereo unspecified)
-5.4%	COc1ccccc1N1CCN(c2nc(CNC(=O)c3sc(C)nc3C)nc3ccccc23)CC1
10.6%	COc1cc(O)c(C(C)=O)c(OC)c1
7.2%	O=C(O)C(O)C(O)(Cc1ccc(O)cc1)C(=O)O (stereo unspecified)
-1.7%	COC(=O)[C@@H]1CCCN1Cc1ccc2c(c1)CN(Cc1cccn1-c1ncccn1)CCO2
-9.2%	CC(=O)Oc1ccc2c(c1)CCC1C2CC[C@]2(C)C(=O)CCC12 (stereo partly specified)
8.5%	O=c1cc(-c2ccccc2)oc2ccccc12
-5.6%	NC(=O)C1CCCN(Cc2ccc3c(c2)CN(Cc2cn[nH]c2-c2ccc(F)cc2)CCO3)C1 (stereo unspecified)
-61.1%[inhibitor]	NC(=O)[C@@H]1CCCN1C(=O)[C@H](Cc1cnc[nH]1)NC(=O)[C@@H]1CCC(=O)N1
?	COc1cccc(N2[C@@H](CC(=O)O)c3ccccc3S2(=O)=O)c1
9.0%&4.9%	Fc1ccc([C@@H]2CCNC[C@H]2COc2ccc3c(c2)OCO3)cc1
-9.0%&-11.0%	CCCCC[C@H](O)CC(=O)CCc1ccc(O)c(OC)c1
-9.5%&5.8%&-25.1%	Nc1nc(Cl)nc2c1ncn2[C@@H]1O[C@H](CO)[C@@H](O)[C@H]1O
11.0%	COc1cccc(C(=O)N2CCCC(c3nc(SCCN4CCOCC4)ncc3C)C2)c1 (stereo unspecified)
-15.1%	COc1ccc(-n2c(=O)cnc3cnc(N(C)C)nc32)cc1
?	COc1cccc(-c2nc(NCc3ccccc3OC)c3ccccc3n2)c1
?	COc1cc(C)c2c(=O)cc(-c3ccccc3)oc2c1
-55.9%[inhibitor]	COC(=O)c1c(C)cc(OC(=O)c2c(C)cc(O)c(C=O)c2O)c(C)c1O
25.2%	NC(Cc1c[nH]c2ccccc12)C(=O)O (stereo unspecified)
112µM*	COc1ncc2nc(-c3ccccc3)c(=O)n(Cc3cccs3)c2n1
-89.4%[inhibitor]	O=C(c1ccncc1)N1CCC2(CC1)CN(c1ccccn1)C2
28.5%	CC(C)c1c(O)ccc2c1CCC1[C@@](C)(CO)CCC[C@@]21C (stereo partly specified)

Ordered by count of non-hydrogen atoms (ascending): 4 of the compounds above
EPAC1 agonist	SMILES
-54.1%[inhibitor]	N#CCCn1c(=O)cnc2cnc(Nc3ccccc3)nc21
15.0%	COCCNc1ncnc2ccc(-c3cccc(OC)c3)cc12
-2.7%	Cc1csc(CN(C)C(=O)c2sc3ncnc(NCC4CCCO4)c3c2C)n1 (stereo unspecified)
-5.4%	COc1ccccc1N1CCN(c2nc(CNC(=O)c3sc(C)nc3C)nc3ccccc23)CC1

Entries above with a Cl atom, in the order listed:
EPAC1 agonist	SMILES
-16.9%	CCC1C(=O)NCCN1Cc1ccc2c(c1)CN(Cc1cccn1-c1ccc(Cl)cn1)CCO2 (stereo unspecified)
1.9%	CN[C@H](CC(C)C)C(=O)N[C@H]1C(=O)N[C@@H](CC(N)=O)C(=O)N[C@@H]2C(=O)N[C@H]3C(=O)N[C@H](C(=O)N[C@H](C(=O)O)c4cc(O)cc(O)c4-c4cc3ccc4O)[C@H](O)c3ccc(c(Cl)c3)Oc3cc2cc(c3O[C@@H]2O[C@H](CO)[C@@H](O)[C@H](O)[C@@H]2O[C@H]2C[C@](C)(N)[C@H](O)[C@H](C)O2)Oc2ccc(cc2Cl)[C@H]1O
19.8%	O=C(COc1ccc(Cl)cc1)N1CCN(Cc2ccc3c(c2)OCO3)CC1
-1.8%	COc1ccc(N2C(=O)[C@@H]3C[C@H]2CN3Cc2ccc3nccnc3c2)cc1Cl
2.4%	COCCn1c(=O)c(-c2ccc(Cl)cc2)nc2cncnc21
-9.5%&5.8%&-25.1%	Nc1nc(Cl)nc2c1ncn2[C@@H]1O[C@H](CO)[C@@H](O)[C@H]1O
